Screening results: PubChem BioAssay, several laboratories
ALR H2O2 inh: inhibitors of human sulfhydryl oxidase ALR; inhibition, % (no concentration beside the values); P55789; 290,000 tested, 3.8% active; purified ALR, DTT oxidation, H2O2 HRP-luminol luminescence;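 active means mean and each replicate at 75% or more; inconclusive means only one of the two met; inactive means neither met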;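 further: stock transfer was 7.5 nL into about 7.5 µL; 0% = neutral wells and 100% = wells with inactivated enzyme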
Target sequence (P55789 whole entry, looked up): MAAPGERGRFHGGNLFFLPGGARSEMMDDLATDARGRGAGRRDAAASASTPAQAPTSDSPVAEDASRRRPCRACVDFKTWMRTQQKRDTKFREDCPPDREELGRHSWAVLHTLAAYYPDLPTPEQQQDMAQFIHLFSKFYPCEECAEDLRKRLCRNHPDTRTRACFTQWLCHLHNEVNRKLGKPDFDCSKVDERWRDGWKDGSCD
E coli growth: inhibitors of Escherichia coli growth. 330,000 tested, 0.21% active. AID 1053175. OD600, 23 h; stronger effect = lower value. OD600 absorbance (concentration not given with the values);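 active means OD600 absorbance below the run mean of sample wells minus 3.6 SD, in any replicate, cut at about 0.56 in these data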;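 further: stock transfer was 300 nL into about 60 µL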
Beta2AR agonist: agonists of human beta-2 adrenergic receptor inducing internalization | P07550 | Am2.2-beta2AR cells, FAP receptor internalization, flow cytometry; reference of the scale not given here | response, % (test concentration not listed) | 340,000 tested, 0.43% active | AID 504454;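 active means response above a set limit, near 3 SD of response in nonfluorescent compounds, cut at about 42% in these data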;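 further: stock transfer was 100 nL into about 11 µL; a reference agonist was the positive control; negative values mostly stem from fluorescent compounds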
Target sequence (P07550 whole entry, looked up): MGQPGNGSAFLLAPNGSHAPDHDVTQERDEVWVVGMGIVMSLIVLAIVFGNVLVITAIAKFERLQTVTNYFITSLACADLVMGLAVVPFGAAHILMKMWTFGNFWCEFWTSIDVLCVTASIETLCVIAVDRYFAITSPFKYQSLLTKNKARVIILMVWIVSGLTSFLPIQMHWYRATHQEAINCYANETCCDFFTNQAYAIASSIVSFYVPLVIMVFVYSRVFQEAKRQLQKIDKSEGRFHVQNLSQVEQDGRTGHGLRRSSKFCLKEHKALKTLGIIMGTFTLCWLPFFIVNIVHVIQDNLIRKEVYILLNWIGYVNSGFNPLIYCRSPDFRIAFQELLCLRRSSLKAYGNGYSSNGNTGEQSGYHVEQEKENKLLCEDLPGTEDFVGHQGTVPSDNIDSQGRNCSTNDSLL
FGF22 binding: binders of recombinant human FGF22 by thermal shift. Q9HCT0. calls only at 9.99 µM. SYPRO orange fluorescence; percent of sucrose octasulfate shift, DMSO zero. 340,000 tested, 1.5% active;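 active means melting point raised past a set limit in the mean and every replicate; inconclusive means no clear call; three in four hits are not shown here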
HNF4A DNA FP: change in binding of human HNF4 alpha to DNA; P41235; HNF4a-FITC DNA binding, fluorescence polarization, 1 h; activity change, % at 10 µM; 360,000 tested, 0.3% active; AID 1224865; in the data active means activity change above about 30%, passing the limit was not always enough;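 further: controls were the assay level and a saturating level of protein; the project sought stronger binding though the title names inhibitors; some compounds called inactive have numbers as strong as hits; positive values seem to mean higher polarization but the record does not say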
UCH37 inh: blocks the human deubiquitinase UCH37 | purified proteasome/UCH37, Ub-AMC cleavage fluorescence | inhibition, % (no concentration beside the values) | Q9Y5K5 | 330,000 tested, 0.33% active;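 active means mean of two replicates above 20%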;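 further: 0% = compound-free wells with enzyme and 100% = wells lacking proteasome; stock transfer was 100 nL into about 20 µL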
Target sequence (Q9Y5K5 whole entry, looked up): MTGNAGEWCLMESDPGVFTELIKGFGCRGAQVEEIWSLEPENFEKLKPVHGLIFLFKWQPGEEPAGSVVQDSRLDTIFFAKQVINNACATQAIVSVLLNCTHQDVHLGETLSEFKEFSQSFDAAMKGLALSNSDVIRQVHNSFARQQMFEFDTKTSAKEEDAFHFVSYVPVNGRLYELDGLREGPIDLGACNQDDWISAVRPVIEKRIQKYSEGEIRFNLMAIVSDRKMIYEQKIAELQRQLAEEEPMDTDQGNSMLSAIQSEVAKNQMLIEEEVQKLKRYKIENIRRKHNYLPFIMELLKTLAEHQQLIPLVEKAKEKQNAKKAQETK
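Assay system: Proteasome-bound UCH37. Buffer or medium: pH 7.4 Tris-HCl (50 mM) with ovalbumin, ATP-MgCl2, DTT. Incubation: 30 min preincubation with enzyme, 25 min cleavage at room temperature. Measured by: fluorescence, ex 355 nm, em 460 nm. Read-out basis: percent inhibition. Control set: wells without proteasome as full block, compound-free enzyme plus substrate as uninhibited.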
LANA-H2B inh: blocks KSHV LANA binding to histone H2A/H2B | cell-free LANA-H2A/H2B peptide, fluorescence polarization | inhibition, % (test concentration not listed) | 320,000 tested, 0.6% active | AID 2629; in the data active means inhibition mostly above about 10%, no sharp cut-off; inactive means mostly below about 6.7%;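 further: stock transfer was 7.5 nL into about 10 µL; 0% = median of vehicle wells and 100% = median of positive control wells; one replicate is shown; the record names a cut of 25% in any replicate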
The depositor's hits bear a star; i = inactive; u = inconclusive; x = not tested or not shown; & = joins results of further samples. A portion of the library; rates above refer to the full screens.

Values in the order – ALR H2O2 inh	E coli growth	Beta2AR agonist	FGF22 binding	HNF4A DNA FP	UCH37 inh	LANA-H2B inh
1. O=C(Cc1ncc(C(F)(F)F)cc1Cl)N1CCN(c2cccc(Cl)c2)CC1
  -13	0.68	2	x	-0.1	1.4	0.9
2. N#Cc1ccc(Oc2ccc(S(=O)(=O)N3CCOCC3)cn2)cc1
  11	0.67	4	i	-1.8	-0.1	2.0
3. O=C(CNC(=O)c1ccco1)OCc1ccccc1Cl
  x	0.65	-3	i	-2.5	1.2	-6.0
4. Cc1cc(C)n(-c2n[nH]c(=O)c3ccccc23)n1
  -7	0.71	5	i	-0.7	5.3	0.2
5. CCOC(=O)CCN(c1ccccc1)S(=O)(=O)c1ccc(-c2ccc(=O)[nH]n2)s1
  -6	0.66	20	i	-3.3	3.9	5.2
6. C=CC[C@]12CCc3ccccc3C1N(c1ccc(C(=O)OCC)cc1)C2=O (stereo partly specified)
  0	0.73	14	i	6.5	0.1	-0.6
7. CC(Sc1ccccc1)C(=O)Nc1ccc(S(=O)(=O)N2CCOCC2)cc1 (stereo unspecified)
  -1	0.69	7	x	2.4	0.5	-2.5
8. CC(NC(=O)CN1CCN(CC(=O)Nc2ccccc2Cl)CC1)c1ccc(Br)cc1 (stereo unspecified)
  x	0.71	6	i	3.8	1.5	x
9. COc1ccccc1CNC(=O)c1nn(C)c2c1CS(=O)(=O)c1ccccc1-2
  4	0.66	3	i	6.6	-1.1	-1.0
10. CC1CCCCC1n1c(-c2cccnc2)n[nH]c1=S (stereo unspecified)
  87*	0.69	11	i	2.5	2.0	-1.4
11. CCOC(=O)C1(CC2CCCCO2)CCN(Cc2nccn2-c2ccc(OC)cc2)CC1 (stereo unspecified)
  -3	0.64	-1	i	-0.2	5.9	0.7
12. Cc1cc(NC(=O)CSc2nncc(=O)n2N)no1
  48	0.72	-2	i	-0.8	2.9	2.4
13. CCN(CC(=O)NCc1cccs1)C(=O)c1cccc(S(=O)(=O)Nc2ccc(C)cc2)c1
  -40	0.69	-3	x	1.9	-0.9	-0.7
14. CCCCCCCCNC(=O)/C(C#N)=C/c1ccccc1[N+](=O)[O-]
  -4	0.67	10	i	-0.6	7.1	-0.4
15. O=C(CS(=O)(=O)c1cccc(Cl)c1)Nc1ccccc1Cl
  0	0.65	-4	x	-4.4	3.0	2.6
16. N#CC1=C(N)OC2=C(C(=O)CCC2)C1c1ccc2c(c1)OCO2 (stereo unspecified)
  15	0.68	5	i	1.1	3.4	1.2
17. CS(=O)(=O)N1CCN=C1SCc1ccc(Br)cc1
  -14	0.71	5	i	-1.1	-1.7	-2.1
18. CCS(=O)(=O)N1Cc2ccccc2CC1C(=O)N(C)Cc1ccc(OC)c(F)c1 (stereo unspecified)
  -2	0.7	-2	i	9.7	4.2	5.0
19. CCCOc1ccc(C2NC(=S)NC(C)=C2C(=O)c2ccccc2)cc1OC (stereo unspecified)
  -3	0.66	-2	i	3.7	3.3	-1.1
20. O=[N+]([O-])c1ccc(-c2cnc3ccccc3n2)cc1
  -12	0.59	-8	i	1.4	6.8	-0.1
21. COc1ccc(OC)c(-c2csc(NC(=O)CSc3ccc([N+](=O)[O-])cc3)n2)c1
  -2	0.73	6	i	-2.2	33*	1.8
22. COc1ccc(S(=O)(=O)N2CCOC23CCN(S(=O)(=O)c2ccc(F)cc2C)CC3)cc1
  x	0.71	1	i	-1.2	1.4	x
23. COc1cnc(-c2ccccn2)nc1NC(C)C
  -7	0.67	-2	i	5.6	-8.4	-5.2
24. COc1ccc(OC)c(NC(=O)c2ccccc2NC(=O)c2ccco2)c1
  x	0.69	-11	i	5.1	3.3	0.5
25. O=C(COc1ccc2ccc(=O)oc2c1)NC(Cc1ccc(Cl)cc1)C(=O)O (stereo unspecified)
  -7	0.75	-3	i	2.1	-22	-5.7
26. COc1cccc(-c2nnc(NC(=O)c3cccc(F)c3)o2)c1
  0	0.58	9	i	3.0	4.6	0.0
27. Cc1ccccc1-n1cc(CNCc2c(C(=O)N(C)C)nc3ccc(Cl)cn23)cn1
  -2	0.69	-1	i	3.4	3.4	-2.1
28. CC(C)CCNC(=O)c1cccnc1Sc1ccccc1
  -7	0.69	-7	x	1.5	0.4	0.9
29. O=C(Nc1ccc(Cl)cc1Cl)Nn1cnnc1
  -7	0.71	-8	i	0.8	2.5	-0.3
30. CCOC(=O)c1ccc(S(=O)(=O)N2CCN(C(=O)CSc3nc4ccccc4o3)CC2)cc1
  -16	0.7	16	i	0.6	1.3	2.4

A portion of the results above, as a working copy:
Values in the order – ALR H2O2 inh	E coli growth	Beta2AR agonist	FGF22 binding	HNF4A DNA FP	UCH37 inh	LANA-H2B inh
12. Cc1cc(NC(=O)CSc2nncc(=O)n2N)no1
  48	0.72	-2	i	-0.8	2.9	2.4
13. CCN(CC(=O)NCc1cccs1)C(=O)c1cccc(S(=O)(=O)Nc2ccc(C)cc2)c1
  -40	0.69	-3	x	1.9	-0.9	-0.7
14. CCCCCCCCNC(=O)/C(C#N)=C/c1ccccc1[N+](=O)[O-]
  -4	0.67	10	i	-0.6	7.1	-0.4

Continued.
Values in the order – ALR H2O2 inh	E coli growth	Beta2AR agonist	FGF22 binding	HNF4A DNA FP	UCH37 inh	LANA-H2B inh
31. COc1ccccc1C(CNC(=O)CNC(=O)c1ccccc1Cl)N1CCCC1 (stereo unspecified)
  -11	0.69	-4	i	-0.8	0.9	-8.0
32. C=CCNc1nc(Nc2cc(Cl)ccc2OC)nc(OC)n1
  -16	0.69	-1	i	0.1	0.7	7.5
33. Cc1c(C(=O)Nc2ccc(S(=O)(=O)N(C)C3CCN(C)CC3)cc2)oc2c(Cl)cccc12
  13	0.62	12	i	-2.0	2.2	-3.5
34. CC1=CC(C)(C)N(C(=O)CSc2nccn2C)c2cc(C)ccc21
  -8	0.68	-9	x	15	2.6	-3.4
35. COc1ccc(S(=O)(=O)c2c(O)c3ccc(C(=O)Nc4ccccc4F)cc3[nH]c2=O)cc1
  2	0.63	37	i	1.8	2.4	-0.8
36. CC(=O)Nc1ccc(/C=C/c2ccc3c([N+](=O)[O-])cccc3n2)cc1
  -4	0.72	2	i	2.8	2.3	-255
37. COc1ccc(OC)c(/C=N/NC(=O)c2ccc(N(C)S(=O)(=O)c3ccccc3)cc2)c1
  -2	x	4	i	2.4	x	-1.3
38. COc1cccc(-c2nnc(SCC(=O)OC(C)C)n2N)c1
  -9	0.74	2	x	-1.6	-1.2	-3.8
39. CN1CCc2c(sc3nc(SCC(=O)N4CCOCC4)n(-c4ccc(Cl)cc4)c(=O)c23)C1
  98*	0.68	5	i	-1.5	-187	0.3
40. COc1ccc(-c2ccc(CCC(=O)O)n2-c2ccc(O)cc2)cc1
  95*	0.68	5	i	0.7	1.5	4.7
41. COCCNS(=O)(=O)c1ccc2c(c1)C(=NO)c1cc(S(=O)(=O)NCCOC)ccc1-2
  x	0.71	13	i	1.3	-20	0.3
42. Cc1nc(SCC(=O)N2CCc3ccccc3C2)c2c(C)c(C)sc2n1
  3	0.75	-12	x	-0.3	4.7	-1.5
43. CCOc1ccc(NC(=O)CSc2nnc(-c3ccccc3)n2N)cc1
  -3	0.72	-5	x	0.8	0.9	3.1
44. COc1ccccc1C1OC2=C(Nc3ccc([N+](=O)[O-])cc3N2)C1=O (stereo unspecified)
  -6	0.68	1	i	-0.4	3.5	-0.5
45. Cc1c(C(=O)N2CCN(c3ccc(F)cc3)CC2)sc2ncnc(N3CCN(c4ccccn4)CC3)c12
  -3	0.71	6	i	-1.1	0.8	-0.1
46. S=C(NC1CCCCC1)NN1CCOCC1
  x	0.69	5	i	5.6	5.6	0.7
47. CCc1ccc(N(CC(=O)NC2CCCC2)S(=O)(=O)c2c(C)noc2C)cc1
  -19	0.75	0	i	1.8	8.7	-1.7
48. CCN(CC)CCSc1nc(O)c(Cc2ccccc2)c(=O)n1-c1ccccc1
  0	0.66	6	i	3.8	0.6	1.5
49. Cc1ccc(Nc2c(-c3ccc(N4CCOCC4)cc3)nc3ncccn23)cc1
  21	0.72	-11	i	-1.0	-16	-2.3
50. COC(=O)CNC(=O)c1cn(-c2ccc(C)c(C)c2)c(=O)c2ccccc12
  0	0.66	-9	i	3.7	3.8	9.1
51. O=C(Cc1ccc(F)cc1)NC1CCCC1
  x	0.78	1	x	-0.6	1.9	x
52. CCc1nnc(NC(=O)CSc2nc3c(c(=O)n2-c2ccccc2OC)SCC3)s1
  1	0.69	-2	x	3.1	6.9	3.0
53. CC1CCCCN1S(=O)(=O)c1ccc2c(c1)CCN2C(=O)C1CCC1 (stereo unspecified)
  -5	0.69	-23	x	0.0	1.1	-1.2
54. O=C(/C=C/c1c(F)cccc1Cl)Nc1ccc(S(=O)(=O)Nc2ncccn2)cc1
  -10	0.66	20	i	-1.0	2.3	-1.5
55. CC(=O)C1=C(O)C(=O)N(c2ccc(S(N)(=O)=O)cc2)C1c1ccc([N+](=O)[O-])cc1 (stereo unspecified)
  47	0.7	0	x	1.8	3.1	-4.2
56. Cc1cccc2cc(CN(CCN(C)C)C(=S)NCc3ccco3)c(=O)[nH]c12
  -12	0.69	-11	x	0.5	4.5	3.5
57. O=S(=O)(NCc1cccnc1)c1cccc2cccnc12
  -9	0.74	-1	i	-3.8	3.3	-2.4
58. CCOC(=O)C1(CCOc2ccccc2)CCN(Cc2cccc(OC)c2)CC1
  x	x	1	i	-1.6	x	-0.5
59. O=C(CSc1nnc(CNC(=O)c2ccc(F)cc2)o1)c1ccccc1
  10	0.73	-3	i	4.6	1.8	2.0
60. COCCCNC(=S)NNC(=O)c1ccc(C(C)(C)C)cc1
  7	0.67	2	i	1.4	2.5	3.0

Next section.
Values in the order – ALR H2O2 inh	E coli growth	Beta2AR agonist	FGF22 binding	HNF4A DNA FP	UCH37 inh	LANA-H2B inh
61. NS(=O)(=O)c1ccc(NC(=O)CSc2nnc(-c3ccc(O)cc3)o2)cc1
  -1	0.67	0	i	0.8	5.7	-1.9
62. CC(=O)Nc1cccc(-c2cn3ccc(C)cc3n2)c1
  u	0.65	-9	i	-1.1	-45	2.7
63. CCCCCCSc1cccc(-c2nc3cc(C)ccn3c2NCc2ccccc2)c1
  x	0.73	24	i	-7.6&7.5	-132	-2.7
64. C/C=C(/C)C(=O)Nc1cccc(C2=NOC3(C2)C[C@H](C(N)=O)N(C(=O)Cc2ccc([N+](=O)[O-])cc2)C3)c1 (stereo partly specified)
  -5	x	-3	i	-2.2	4.0	4.5
65. Cc1cc(C)c(C)c(S(=O)(=O)N2CCN(C(=O)C3CSC4(C)CCC(=O)N34)CC2)c1C (stereo unspecified)
  -6	0.67	-14	x	-0.9	0.5	-0.1
66. Cc1ccc(N(C)/N=C/c2ccc(Cl)cc2Cl)nn1
  -11	x	-8	i	-3.6	x	16
67. CS(=O)(=O)N1CCN(C(=O)c2cc3ccccc3oc2=O)CC1
  -1	0.65	-4	i	-0.1	-3.7	2.0
68. CC1=C(C(=O)OCc2ccc(C)cc2)C(c2ccc(O)c([N+](=O)[O-])c2)NC(=O)N1 (stereo unspecified)
  6	0.74	2	i	-1.0	2.4	3.1
69. Cc1ccc(S(=O)(=O)N2CCOCC2)cc1NC(=O)CN1C(=O)CN(C)C1=O
  x	0.66	-9	i	-6.9	-0.3	x
70. Nn1c(SCC(=O)Nc2ccc(OC(F)F)cc2)nnc(Cc2ccccc2)c1=O
  98*	0.69	4	x	-1.9	5.3	1.7
71. CC(C)c1ccc(S(=O)(=O)Nc2ccc3c(c2)OCO3)cc1
  x	0.66	7	i	2.1	3.2	-6.1

Two records drawn at random from those above, as already listed:
Values in the order – ALR H2O2 inh	E coli growth	Beta2AR agonist	FGF22 binding	HNF4A DNA FP	UCH37 inh	LANA-H2B inh
70. Nn1c(SCC(=O)Nc2ccc(OC(F)F)cc2)nnc(Cc2ccccc2)c1=O
  98*	0.69	4	x	-1.9	5.3	1.7
61. NS(=O)(=O)c1ccc(NC(=O)CSc2nnc(-c3ccc(O)cc3)o2)cc1
  -1	0.67	0	i	0.8	5.7	-1.9
